UUG fidelity = alters start codon recognition fidelity in yeast | AID 602363 | S. cerevisiae UUG-firefly luciferase reporter, luminescence/redox ratio | hit rate 0.13% among 350,000 | activity score, % at 18.7 µM;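 active means replicate mean at a twofold rise or more, about +100% in these data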;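 further: firefly luciferase made from a UUG start codon reports start codon fidelity; reporter light over untreated wells divided by growth signal over untreated wells; some hits fall short of that in this replicate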
MT1-MMP act inh = blocks activation of human MT1-MMP. HT1080 RFP-PRO-GFP cells, GFP/RFP ratio fluorescence, overnight; percent of plate control window, DMSO zero. GFP/RFP ratio change, % at 20 µM. hit rate 0.061% among 360,000. AID 651647. P50281;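 active means GFP/RFP ratio change of at least 30% with cell ATP level not reduced by more than half and red fluorescence within 50% of control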; further: strong numbers were not always called active
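Assay system: HT1080 RFP-PRO-GFP cells | Dosing: 20 µM single dose, 1% DMSO | Incubation: Cells overnight before dosing, compound overnight, 37 °C, 5% CO2 | Evaluation: GFP/RFP fluorescence ratio | Control set: DMSO-only wells and HT1080 RFP-L50D-GFP cell wells as references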
Rce1 inh = inhibitors of yeast Ras-converting enzyme; Q03530; yeast membranes, quenched prenylated peptide cleavage fluorescence; calls only; hit rate 0.27% among 290,000;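 active means fall in fluorescence gain of 50% or more versus controls, with final raw signal at or below 3038400; inconclusive means same 50% fall but final raw signal above 3038400; inactive means fall in fluorescence gain under 50%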;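 further: plate controls were neutral control wells for no effect and wells lacking membranes for full effect; tested at 10 µM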
Target sequence (Q03530 whole entry, looked up): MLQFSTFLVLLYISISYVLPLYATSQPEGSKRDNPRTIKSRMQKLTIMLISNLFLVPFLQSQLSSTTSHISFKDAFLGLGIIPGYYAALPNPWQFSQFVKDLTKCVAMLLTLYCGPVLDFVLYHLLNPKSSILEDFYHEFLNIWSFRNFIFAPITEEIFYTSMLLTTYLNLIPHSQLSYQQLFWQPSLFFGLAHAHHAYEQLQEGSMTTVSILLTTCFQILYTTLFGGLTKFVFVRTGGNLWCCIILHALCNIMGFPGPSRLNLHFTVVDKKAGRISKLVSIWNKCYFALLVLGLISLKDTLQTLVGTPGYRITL
eIF4H FP inh = inhibitors of RNA binding by human eIF4H; hit rate 0.94% among 290,000; inhibition, % at 35 µM; Q15056; eIF4H fluorescence polarization binding assay; AID 2012;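 active means 50% or more with normal probe brightness, or confirmed in later tests; inconclusive means above 50% with abnormal brightness, or retests that disagree; inactive means below 50% or failed in later tests; about a fifth of its hits are not listed in these tables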;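 further: calls also rest on retests at 20 µM and on dose response follow-up; 0% = protein and probe with vehicle and 100% = probe without protein; strong numbers were not always called active; many hits fall short of the cut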
CSC inhib = cancer stem cell inhibition. cancer stem cell-like cells viability, luminescence. inhibition, % at 7.5 µM. hit rate 1.1% among 300,000. AID 2717;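 active means mean at 75% or more and at least half the replicates too; inconclusive means mean and replicates disagree; tested in HMLE shEcad cells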;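 further: 0% = median of negative and 100% = median of positive control wells; the first replicate is given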
PABP FP inh = PABP-poly(A) binding inhibition | PABP-poly(A) RNA binding, fluorescence polarization | inhibition, % at 35 µM | hit rate 1% among 290,000 | AID 2014;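 active means 50% or more with normal probe brightness, or confirmed in later tests; inconclusive means above 50% with abnormal brightness, or retests that disagree; inactive means below 50% or failed in later tests; about a fifth of its hits are not listed in these tables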;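 further: calls also rest on retests at 20 µM and on dose response follow-up; controls were probe without protein and protein plus probe with vehicle; some compounds called inactive have numbers as strong as hits; many hits fall short of the cut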
Target sequence (P11940 whole entry, looked up): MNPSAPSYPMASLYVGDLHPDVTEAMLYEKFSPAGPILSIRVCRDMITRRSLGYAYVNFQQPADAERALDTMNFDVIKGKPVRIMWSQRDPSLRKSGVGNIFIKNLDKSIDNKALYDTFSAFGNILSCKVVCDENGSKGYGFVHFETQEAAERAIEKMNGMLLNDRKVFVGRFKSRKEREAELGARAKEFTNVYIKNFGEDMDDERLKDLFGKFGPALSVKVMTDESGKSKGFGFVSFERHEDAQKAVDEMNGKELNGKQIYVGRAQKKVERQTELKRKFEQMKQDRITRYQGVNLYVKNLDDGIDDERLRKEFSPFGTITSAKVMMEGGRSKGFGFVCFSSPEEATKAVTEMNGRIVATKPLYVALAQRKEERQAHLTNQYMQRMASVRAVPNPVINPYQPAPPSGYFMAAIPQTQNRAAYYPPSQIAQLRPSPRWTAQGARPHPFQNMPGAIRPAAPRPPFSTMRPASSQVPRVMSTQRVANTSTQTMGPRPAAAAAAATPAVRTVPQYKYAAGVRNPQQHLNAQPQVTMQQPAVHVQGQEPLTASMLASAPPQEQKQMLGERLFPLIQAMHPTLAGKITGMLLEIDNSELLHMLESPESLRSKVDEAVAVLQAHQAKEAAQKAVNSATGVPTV
HIV Env fusion = inhibitors of HIV Env-mediated cell fusion. hit rate 1.1% among 360,000. inhibition, % at 12.3 µM. HeLa-JRFL Env/CEM21 cell fusion, luciferase;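 active means mean replicate inhibition score of at least 50 and every replicate individually at or above 50; inconclusive means only one of the two criteria met; inactive means mean below 50 and not all replicates reaching 50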;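 further: 0% = plate neutral controls and 100% = maraviroc near 300 nM; one replicate is shown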
eIF4H FP inh retest = second read-out of eIF4H FP inh, no call of its own (marks repeat the call); inhibition, %; compound at 20 µM; confirmation average;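 mean of two retest wells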
PABP FP inh retest = recorded beside PABP FP inh, whose call it bears; inhibition, %; compound at 20 µM; confirmation repeats;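 mean of two retest wells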
MT1-MMP act inh RFP = recorded beside MT1-MMP act inh, whose call it bears; RFP signal change, %; measured here: RFP expression control read;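 0 = vehicle wells; hits needed this value within 50% of zero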
* = called active by the depositor; i = inactive; u = inconclusive; x = not tested or not shown; & = joins results of further samples. An excerpt, so the mix of outcomes need not match the whole.

SMILES | UUG fidelity | MT1-MMP act inh | MT1-MMP act inh RFP | Rce1 inh | eIF4H FP inh | CSC inhib | PABP FP inh | HIV Env fusion | others
COc1ccc(S(=O)(=O)N(Cc2cccnc2)Cc2cc3ccccc3[nH]c2=O)cc1 | -20 | 0 | -2 | i | -4 | -6 | 3 | 3
Cc1ccc(-c2csc(N3CCC(NS(=O)(=O)c4ccc5c(c4)OCCO5)CC3)n2)cc1 | -22 | 7 | -6 | i | 0 | -24 | 0 | u
O=C(CN1C(=O)NC2(CCCCCC2)C1=O)N1CCC(Cc2ccccc2)CC1 | -20 | 1 | -12 | i | -1 | -1 | 4 | u
CCOC1=C2[C@H](c3ccccc3)N(S(=O)(=O)c3ccc(C)cc3)C(C(C)(C)C)[C@H]2C(C#N)(C#N)C(C#N)(C#N)C1 (some centres undefined) | -12 | -3 | -18 | x | x | x | x | 30
CCOc1cc(/C=N/NC(=O)C(=O)N/N=C/c2ccc(O)c(OCC)c2)ccc1O | -3 | -2 | -1 | i | 2 | 0 | 15 | 4
CCCCCn1nc(C(=O)OCc2nc(N)nc(Nc3ccccc3)n2)c2ccccc2c1=O | -11 | -1 | 0 | x | x | 8 | x | 14
Cc1cc([N+](=O)[O-])nn1CC(=O)Nc1cnc2ccccc2c1 | x | 9 | 5 | i | 1 | 4 | 2 | -8
Cc1ccc2c(c1)[C@H]1[C@H](CO2)[C@H](c2ccccc2)[C@]2(C)C(=O)Nc3cc(F)c(F)cc3C(=O)N12 | -12 | -29 | -20 | x | x | x | x | -6
N#Cc1ccsc1NC(=O)CN1CCN(c2ccccc2O)CC1 | x | 0 | 4 | i | 9 | -11 | 12 | 14
CCc1nc2ccc(C(=O)Nc3cccc(NS(C)(=O)=O)c3)cn2c1N(C)C(=O)c1cccc(OC)c1 | -1 | 3 | 1 | x | x | x | x | 1
CCOc1nc(NCCN2CCOCC2)nc(Nc2ccc(C)cc2)n1 | -18 | 6 | -1 | i | -2 | -12 | -6 | -26
CC(C)CC1Nc2ncnc(N3CCN(c4ccccn4)CC3)c2N(Cc2ccc(Br)cc2)C1=O (centres undefined) | -11&14 | -1&-20 | -5&-18 | i | x | -5 | x | -14
O=C1C2CCCN2C(c2ccccc2)N1c1nccs1 (centres undefined) | -16 | 1 | 5 | i | -4 | x | 0 | -4
CC(C)CCNC(=O)C1CC(=O)N(C2CCCC2)C1 (centres undefined) | 0 | 3 | -5 | i | -5 | -2 | 4 | -52
CC(=O)NS(=O)(=O)c1ccc(NC(=O)CC(C)c2ccccc2)cc1 (centres undefined) | x | 2 | -1 | i | -2 | -5 | 0 | -12
O=C(Oc1ccc2[nH]cc(CCN3C(=O)c4ccccc4C3=O)c2c1)c1ccco1 | x | 12 | 1 | i | -8 | 2 | -10 | x
OCCNCCOc1ccccc1F | -11 | 1 | 2 | i | 8 | x | -9 | x
O=C(NCCCN1CCCC1)c1ccc(CS(=O)(=O)c2ccc(Cl)cc2)o1 | -1 | -2 | 2 | i | 6 | -8 | 3 | 3
O=C(c1ccc(F)cc1)c1cnc(Nc2ccccc2)s1 | x | -1 | -4 | i | 3 | 1 | 10 | -56
CC1(C)Cc2cccc(OCC(=O)OCC(=O)c3ccccc3)c2O1 | -4 | 1 | 2 | x | x | 15 | x | 5
S=c1nc(Cc2ccc(Cl)cc2)[nH]c2ccccc12 | x | -5 | -8 | x | 4 | 7 | -9 | 0
COc1ccc(-c2[nH]ncc2CN2CCC(C(=O)c3ccc(F)cc3)CC2)cc1 | x | -2 | -3 | i | -8 | -5 | 8 | 1
Cc1ccc(NC(=O)CNC(=O)c2ccccc2F)cc1Cl | -15 | 0 | 0 | i | -11 | -4 | 8 | -57
N#C/C(=C(/O)c1cccc(F)c1)c1nc2ccccc2s1 | x | -1 | -9 | i | -3 | 36 | -10 | -10
CCn1c(SCC(=O)NCc2ccco2)nnc1-c1ccncc1 | x | x | x | i | 5 | -24 | -6 | x
Cc1cc2c(cc1S(=O)(=O)N(C)Cc1ccccc1)n(C)c(=O)c(=O)n2C | -15 | 3 | 1 | i | -8 | -12 | -4 | -30
CCNC(=S)N1CCc2cc(OC)c(OC)cc2C1COc1ccccc1OC (centres undefined) | -21 | 3 | 0 | i | -1 | -6 | 12 | -5
O=C(C[n+]1cc(Br)cc2ccccc21)c1ccc(F)cc1 | -16 | -15 | -2 | i | u | 0 | u | -5
C=CCNC(=O)c1c(CSc2ccccc2)noc1C(=O)NCc1ccccc1 | -7 | -1 | -1 | x | -8 | 14 | 5 | -30
CN(C)c1ccc(CN(C(=O)c2ccccc2Br)C2CCS(=O)(=O)C2)cc1 (centres undefined) | -14 | 0 | 3 | i | -13 | -5 | -2 | -3
c1cncc(-c2nc3ccccc3[nH]2)c1 | x | 7 | 2 | x | 10&-2 | -17 | 13&-9 | x
Cc1cc(NC(=O)C2CC2)ncc1NC(=O)C12CC3CC(CC(C3)C1)C2 | -5 | -5 | -6 | i | -2 | 22 | 0 | -86
CCCCN(Cc1cc2ccccc2[nH]c1=O)S(C)(=O)=O | x | -1 | 6 | i | 2 | x | 47 | 24
Cc1ccc(S(=O)(=O)N2CCC3(CC2)OCCN3S(=O)(=O)c2c(C)cc(C)cc2C)cc1 | -21 | -4 | -1 | i | x | 0 | x | 32
CC(=O)c1cc(CN2CCC(n3nccc3NC(=O)c3ccccc3C)CC2)cs1 | -4 | -1 | -1 | i | -5 | -22 | 0 | 1
C=CCOn1c(C)c(C(C)=O)c2c3no[n+]([O-])c3ccc21 | -2 | -3 | -3 | i | 3 | -6 | -8 | 17
CCCCCCOC(=O)CCc1c(C)nc(N)[nH]c1=O | -3 | -2 | 2 | i | -11 | 12 | 5 | x
CCOC(=O)CNC(=O)CSc1nc2cccnc2n1Cc1ccccc1 | -8 | -5 | 1 | i | 1 | x | -11 | -31
O=C(NCc1ccco1)/C(=C/c1ccco1)NC(=O)c1ccc(Br)o1 | 3 | -8 | 2 | i | 88 | 0 | 0 | 6 | eIF4H FP inh retest=16;PABP FP inh retest=40
CCOc1ccc(C(=O)NCC(=O)NCCCn2nc(C)cc2C)cc1OCC | -6 | -2 | 2 | i | -10 | -14 | -2 | x
COc1ccccc1CNC(=O)COc1ccc(C)cc1 | -6 | 2 | -2 | i | -6 | -18 | 26 | -16
COc1ccc(Cl)cc1C(=O)NNC(=S)NC(=O)/C=C/c1ccco1 | x | 3 | -3 | i | 64 | 14 | 6 | 0 | eIF4H FP inh retest=-7;PABP FP inh retest=6
Cc1ccc2nc(-c3ccccc3)nn2c1 | -74 | 1 | -1 | x | x | x | x | 35
C=CCOC(=O)C1=C(C)NC(=O)NC1c1ccc(OCC)cc1 (centres undefined) | -16 | 5 | -3 | i | -15 | -9 | -1 | -399
O=C(c1ccc(Cl)cc1)N1C2C=CC(C2)C1(C(F)(F)F)C(F)(F)F (centres undefined) | -26 | 1 | 8 | i | -7 | -10 | -2 | 13
CCOC(=O)C1CCCN(C(=O)c2ccc3c(c2)NC(=O)C(N2CCOCC2)S3)C1 (centres undefined) | 2 | -1 | -13 | i | 9 | 3 | 9 | x
COc1ccc(C(C)=O)cc1COC(=O)c1cccnc1SC | x | -2 | -2 | i | -12 | 10 | -2 | 14
COc1ccccc1C1=NC(c2ccc(C)cc2)N=C1C (centres undefined) | x | 3 | -4 | i | -5 | 0 | 2 | -252
CC(C)(C)C(=O)Nc1ncccc1C(O)c1cccc(C(F)(F)F)c1 (centres undefined) | x | -5 | -3 | i | 5 | -14 | 2 | -5
CCOC(=O)c1ccc(-c2ccc3ncnc(N(C)Cc4sccc4C)c3c2)o1 | -2 | -4 | -1 | x | x | x | x | -10
Cc1cc(SCC(=O)NC2CC2)nc2ccccc12 | -14 | 6 | 3 | x | x | -17 | x | -3
CCN(c1ccccc1)S(=O)(=O)c1cc(C(=O)NCC(c2ccco2)N2CCCCC2)ccc1C (centres undefined) | 1 | -1 | -5 | x | x | 16 | x | -25
CCc1c(C)nc2ncnn2c1Nc1ccc(C)c(C)c1 | -17 | 11 | 0 | i | -7 | 8 | -6 | x
CCN(CC(=O)Nc1ccc(OC)cc1)CC(=O)Nc1sc2c(c1C(=O)OC)CCCC2 | -6 | -7 | -13 | x | x | x | x | 8
Cc1nc(Oc2ccccc2)c2oc3ccccc3c2n1 | -8 | 1 | -11 | i | -3 | -16 | -2 | -36
O=C(Nc1ccc(Br)cc1)c1csc(-c2ccncc2)n1 | x | 3 | -3 | i | -6 | -2 | 6 | 13
CN1C(=O)c2cccc(NC(=O)Cc3ccccc3)c2C1=O | -9 | -2 | -1 | i | -11 | 16 | -3 | 21
CCCNC(=O)NNC(=O)c1cc(-c2ccc3c(c2)OCO3)nc2ccccc12 | -8 | -3 | 1 | i | -3 | 6 | -7 | 9
O=C(Nc1ccc(Cl)cc1Cl)c1ccc2c(=O)n3c(nc2c1)CCC3 | -22 | 3 | -6 | i | x | -17 | x | -85
COc1ccccc1CNC(=O)C1Cc2cc(S(=O)(=O)N3CCCC3)ccc2N1C(C)=O (centres undefined) | 14 | -3 | 0 | i | -8 | 11 | -1 | -3
Carrying on:
SMILES | UUG fidelity | MT1-MMP act inh | MT1-MMP act inh RFP | Rce1 inh | eIF4H FP inh | CSC inhib | PABP FP inh | HIV Env fusion | others
Cc1csc2ncc(C(=O)Nc3ccccc3Cl)c(=O)n12 | -10 | -4 | -1 | i | -5 | -10 | -15 | -122
CCOC(=O)/C(=N\Nc1ccc(OC)cc1)c1csc(Nc2ccccc2)n1 | x | 13 | 3 | i | -5 | 104* | -3 | x
O=C(O)c1[nH]c2ccccc2c1CC(=O)N1CCN(c2ccccc2)CC1 | x | -1 | -1 | x | -13 | x | -8 | 5
Cc1ccc(C2CC2c2n[nH]c(=S)n2-c2ccc(Cl)cc2)cc1 (centres undefined) | -16 | 5 | 2 | i | -2 | 2 | -2 | -23
O=c1cc(N2CCC3(CC2)OCCO3)[nH]c(=O)n1C1CCCCC1 | 10 | 6 | -1 | i | -6 | 7 | -1 | x
CCn1cc(S(=O)(=O)N2CCCC2)cn1 | -11 | 1 | 3 | i | 8 | -1 | 1 | 22
CCOCCCNC(=O)C(NC(=O)c1cnccn1)c1ccc(C)cc1 (centres undefined) | -27 | -2 | 0 | i | -3 | 1 | 10 | -8
O=C(CCC(=O)N1CCN(S(=O)(=O)c2ccc(Cl)cc2)CC1)Nc1ccc2ccccc2c1 | 6 | -3 | -11 | i | -6 | 14 | -1 | 45
CCOCCCNCC(=O)Nc1ccc(S(=O)(=O)NC(C)CC)cc1 (centres undefined) | x | -2 | 0 | i | 9 | 4 | 5 | -7
COC(=O)c1ccc(NC(=O)COc2ccc([N+](=O)[O-])cc2)cc1 | -12 | -4 | 2 | i | 6 | 9 | 25 | 13
Cc1nnc(NC(=O)c2sc3nc(-c4cccs4)cc(C(F)(F)F)c3c2N)s1 | -18 | -367 | -1 | i | u | 36 | u | 13

Bioassay records (PubChem BioAssay)
